Source: PubChem BioAssay
GALR2 agonist: GALR2 receptor agonists, primary screen, cell-based; 0.48% of 140,000 active; GALR2-expressing cells, agonist activation read-out; Galanin receptor type 2 (Homo sapiens), O43603; AID 803, 2007; activation, %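 (tested at 5 µM)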;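 active means above mean plus 3 SD of all compounds, about 5% in these data, not always enough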;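 further: 0% = vehicle buffer wells and 100% = reference agonist at full effect; tested in CHO reporter cells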
RGS16-Gao: modulators of RGS16 binding to Galphao, primary screen, biochemical, human proteins, multiplexed bead flow cytometry; 0.38% of 220,000 active; binding response (% of control), % at 10 µM; AID 1441, 2008; bead-based flow cytometry RGS16-Galphao binding, fluorescence; actives lie on both sides;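 active means below 25% or above 175%, edge rows of some plates excepted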;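 further: Galphao activated by GDP with aluminum fluoride before binding; 100% = wells without compound and 0% = beads without RGS; some results beyond the cut were filed as inactive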
HSV replic up: enhancers of HSV replication in host cells, fold increase, host cell viability. HSV replication augmentation in cells. maximum fold increase. 0.005% of 220,000 active. AID 1956, 2009;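 active means peak rise of 1.5-fold or more in the series; tested in PC3 cells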;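 further: first round at 10 µM; read as green reporter fluorescence; hits show the peak of a series up to 25 µM; 1 = signal of infected wells without compound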
PKD1 kinase inh: inhibitors of human PKD1 kinase, biochemical, fluorescence polarization. Serine/threonine-protein kinase D1 (Homo sapiens), Q15139. AID 797, 2007. inhibition, %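 (about 10 µM by stock and volumes)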. 0.056% of 200,000 active. PKD1 kinase fluorescence polarization assay;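 active means inhibition of 50% or more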;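 further: controls were vehicle for no effect and a reference inhibitor for full effect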
Target sequence (Q15139 whole entry, looked up): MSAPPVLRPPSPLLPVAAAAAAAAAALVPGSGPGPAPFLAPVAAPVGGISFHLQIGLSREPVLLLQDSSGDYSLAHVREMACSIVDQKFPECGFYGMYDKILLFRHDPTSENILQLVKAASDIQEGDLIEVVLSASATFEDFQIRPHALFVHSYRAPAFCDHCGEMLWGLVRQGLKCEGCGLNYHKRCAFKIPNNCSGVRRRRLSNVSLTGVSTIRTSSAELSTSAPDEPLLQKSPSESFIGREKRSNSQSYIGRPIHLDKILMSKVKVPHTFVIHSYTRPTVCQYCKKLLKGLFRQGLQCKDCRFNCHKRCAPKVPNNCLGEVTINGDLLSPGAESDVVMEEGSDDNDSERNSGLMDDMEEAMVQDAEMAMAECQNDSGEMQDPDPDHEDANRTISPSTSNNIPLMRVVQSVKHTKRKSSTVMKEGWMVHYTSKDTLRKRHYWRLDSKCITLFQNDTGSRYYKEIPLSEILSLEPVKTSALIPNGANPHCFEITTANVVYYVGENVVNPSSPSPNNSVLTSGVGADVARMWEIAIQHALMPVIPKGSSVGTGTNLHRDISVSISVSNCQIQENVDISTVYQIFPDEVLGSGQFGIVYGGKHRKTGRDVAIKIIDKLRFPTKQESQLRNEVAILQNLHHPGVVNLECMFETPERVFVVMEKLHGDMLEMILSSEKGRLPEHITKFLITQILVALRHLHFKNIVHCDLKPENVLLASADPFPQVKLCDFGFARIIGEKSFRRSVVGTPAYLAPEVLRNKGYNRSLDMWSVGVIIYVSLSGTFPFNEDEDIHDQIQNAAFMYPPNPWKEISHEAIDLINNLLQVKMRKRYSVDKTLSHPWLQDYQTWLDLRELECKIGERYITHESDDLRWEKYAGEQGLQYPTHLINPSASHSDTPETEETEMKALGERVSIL
INS promoter inh: inhibitors of insulin promoter-driven GFP, primary screen, imaging, TRM-6 cells (human fetal islet line), eGFP reporter, cell count. reporter expression induced with tamoxifen. inhibition, % at 2 µM. 0.9% of 130,000 active. AID 1273, 2008;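 active means inhibition above the mean plus 3 SD, with well images judged a real hit on visual review, cut at about 60% in these data, passing the limit was not always enough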
INS promoter inh cell count: recorded beside INS promoter inh, whose call it bears; normalized cell count, %; measured here: cell count, toxicity; reference of the scale not given here;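 cells exposed to compound for 48 h; stained nuclei by imaging scaled within each plate; lower means fewer cells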
HSV replic up primary fold: recorded beside HSV replic up, whose call it bears; fold increase; compound at 10 µM; measured here: primary screen fold increase 10 uM; tested in PC3 cells;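 GFP signal in the first replicate; 1 = infected wells without compound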
* marks the source's active call; other numbers are inactive results; i = inactive; . = not tested or not shown. An unsorted share of the library (roughly 1.3% active in at least one column).

| mol | HSV replic up primary fold | INS promoter inh | RGS16-Gao | GALR2 agonist | INS promoter inh cell count | HSV replic up | PKD1 kinase inh |
| --- | --- | --- | --- | --- | --- | --- | --- |
| O=C(OC(C(=O)NCc1cccs1)c1ccc(F)cc1)c1ccco1 (configuration not stated) | 1.02 | 13.9 | 78.6 | -0.3 | 115.2 | i | -0.9 |
| CC(=O)Nc1ncc(Cc2cccc(Cl)c2)s1 | 0.94 | . | 98.3 | . | . | i | 1.2 |
| COc1ccccc1C(=O)Nc1cccc(-c2cn3ccsc3n2)c1 | 0.89 | 31.0 | 101.5 | -2.6 | 54.3 | i | 0.4 |
| COc1ccccc1C(=O)Nc1ccc2oc(-c3ccc(F)cc3)nc2c1 | 0.74 | 46.9 | 92.1 | 0.8 | 99.4 | i | -6.2 |
| O=C(/C=C/c1ccccc1)Nc1nnc(-c2ccco2)o1 | 1.08 | -57.9 | 101.1 | . | 113.7 | i | 1.8 |
| COc1ccccc1OCc1nnc(SCCN2CCOCC2)o1 | 0.92 | . | 102.5 | 0.0 | . | i | 8.6 |
| CCOC(=O)c1cnn(CCOC(=O)c2ccc(OC)cc2)c1NC(=O)c1ccc(OC)cc1 | 1 | -100.0 | 108.6 | 0.5 | 44.0 | i | 4.9 |
| O=C(CSc1nnc(COc2ccccc2Cl)o1)NC(=O)NC1CCCC1 | 0.87 | 6.5 | 88.8 | -2.8 | 93.1 | i | -11.9 |
| O=C(Nc1cc(S(=O)(=O)N2CCCCC2)ccc1N1CCOCC1)c1cc(=O)[nH]c2ccccc12 | 0.99 | . | 102.1 | . | . | i | . |
| CC1CCC(C(C)C)C(=O)/C1=C/c1ccc(N)cc1 (configuration not stated) | 0.99 | . | 98.8 | . | . | i | . |
| CN(Cc1ccccc1)C(=O)CSc1nnc(-c2ccco2)n1-c1ccccc1 | 0.92 | . | 107.0 | 0.1 | . | i | 14.4 |
| Cc1cccc2sc(NNC(=O)C3=COCCO3)nc12 | 1.04 | -10.5 | 96.4 | . | 89.6 | i | -2.9 |
| O=C(CSc1ccc(-c2ccccn2)nn1)N1CCc2ccccc21 | 0.91 | . | 99.0 | . | . | i | -1.6 |
| O=C(CSc1nc2ccccc2s1)NC1CCCC1 | 0.99 | . | 95.9 | . | . | i | . |
| O=C(NCC12CC3CC(CC(C3)C1)C2)c1nc2ncccn2n1 | 0.8 | . | 104.9 | -1.1 | . | i | -6.9 |
| CCCCOc1ccc(C(C)NC(=O)CCS(=O)(=O)Cc2ccccc2F)cc1 (configuration not stated) | 0.9 | -6.7 | 114.5 | -0.9 | 90.3 | i | -3.8 |
| CCc1c(C)sc(NC(=S)NC(C)C2CCCO2)c1C(=O)OC (configuration not stated) | 1.02 | 5.3 | 98.5 | . | 159.5 | i | -3.3 |
| Cc1ccc(NC(=O)Nc2cccnc2)cc1NC(=O)Nc1cccnc1 | 0.88 | . | 101.5 | . | . | i | . |
| COc1ccc(N=Cc2c(O)n(-c3cccc(C)n3)c(=O)c3ccccc23)cc1 | 0.89 | -50.0 | 86.4 | -1.3 | 93.5 | i | 2.2 |
| COCCNC(=O)Cn1c(=O)n(CCCCCC(=O)Nc2ccccc2)c(=O)c2sccc21 | 0.75 | 3.2 | 101.9 | -1.4 | 100.0 | i | 4.5 |
| O=C(NCc1ccccc1)C1CCCN(S(=O)(=O)c2cccs2)C1 (configuration not stated) | 1.24 | -48.4 | 129.2 | -2.2 | 139.7 | i | 7.0 |
| COCCn1nnnc1C(c1cccs1)N1CCN(c2cc(C)ccc2C)CC1 (configuration not stated) | 0.92 | 6.9 | 105.9 | -2.7 | 141.7 | i | -5.7 |
| Cc1ccc(C)c(OCCCC(=O)Nc2nccs2)c1 | 0.933 | -10.7 | 99.9 | 0.5 | 122.6 | i | -1.0 |
| COc1ccccc1C/C(N)=N/OC(=O)c1ccc2c(c1)OCO2 | 0.97 | -60.0 | 102.5 | . | 110.5 | i | 0.6 |
| CCOC(=O)N1CCN(C(=O)CS(=O)Cc2nc(-c3ccc(C)cc3)oc2C)CC1 (configuration not stated) | 1 | . | 98.8 | -4.3 | . | i | -16.8 |
| CC(C)CN(CC(C)C)S(=O)(=O)N1CCC(C(=O)NC2CCCCCCC2)CC1 | 0.94 | -25.8 | 105.3 | -0.7 | 100.7 | i | -2.7 |
| O=S(=O)(c1ccc(Oc2ccc(-c3nnco3)cc2)nc1)N1CCC(Cc2ccccc2)CC1 | 0.94 | -10.0 | 98.8 | -1.2 | 177.9 | i | -0.3 |
| COc1ccccc1N1CCN(CC(O)COCCOc2ccc(Br)cc2)CC1 (configuration not stated) | 0.71 | -23.3 | 150.5 | -0.9 | 61.9 | i | 2.8 |
| CCCCCNCc1cccn1C | 0.85 | 20.7 | 61.2 | -1.2 | 94.9 | i | -5.7 |
| COc1ccc(S(=O)(=O)N2CCCCC2)cc1NC(=O)c1cc(C)on1 | 0.92 | . | 102.3 | . | . | i | 5.4 |
| COC(=O)c1sccc1NC(=O)c1c(C)noc1C | 1.09 | 1.2 | 92.1 | 1.9 | 157.1 | i | 4.1 |
| CCc1ccc(C2CC(=O)Nc3c2c(=O)nc2c(C)cccn32)cc1 (configuration not stated) | 1.04 | . | 103.8 | . | . | i | 3.1 |
| O=C(CN1CCCCCC1)Nc1ccc(Oc2ccccc2)cc1 | 0.95 | . | 93.8 | . | . | i | -9.3 |
| Cc1nnc(SCC(=O)Nc2ccc3c(c2)OCCO3)s1 | 1.33 | 25.8 | . | -2.6 | 62.6 | i | -5.0 |
| O=C(Nc1ccccc1)Nc1ccc(Oc2cccnc2)nc1 | 0.95 | . | 103.3 | . | . | i | . |
| CCOC(=O)/C(=C/c1cn(C)c2ccccc12)NC(=O)c1ccccc1 | 1.01 | . | 101.2 | . | . | i | . |
| Cc1ccc2cc(CCNC(=O)c3ccco3)c(=O)[nH]c2c1 | 0.95 | -146.7 | . | -1.9 | 127.7 | i | -11.9 |
| Cc1cc(N2CCOCC2)nc2ccc(NC(=O)C3CCC(C)CC3)cc12 (configuration not stated) | 0.8 | 6.2 | 101.2 | -1.2 | 89.1 | i | -15.6 |
| CC/C(=C\c1oc2cc3ccccc3cc2[n+]1CC)Nc1ccccc1 | 1.22 | . | 100.4 | . | . | i | -1.7 |
| O=S(=O)(Nc1cccc(-c2cn3ccsc3n2)c1)c1ccc(F)cc1 | 0.92 | -33.3 | 100.0 | -0.3 | 156.8 | i | -2.3 |
| COc1cc(C(C)=O)ccc1COc1ccc(C(=O)OC(C)C(=O)NC(N)=O)cc1OC (configuration not stated) | 0.9 | 8.8 | 90.0 | -2.5 | 122.3 | i | -5.4 |
| Cc1ccc2c(n1)sc1c(-c3ccc(Br)cc3)c(C#N)c(N)nc12 | 0.897 | 37.5 | 95.8 | 0.1 | 63.9 | i | -8.1 |
| C=Cn1c(N2CCOCC2)nc2c1c(=O)[nH]c(=O)n2C | 0.83 | -44.0 | 103.5 | -0.3 | 82.3 | i | -3.7 |
| CCOc1ccc(Cl)cc1S(=O)(=O)N1CCN(c2ccc(C)c(C)c2)CC1 | 0.82 | 21.7 | 110.6 | 0.5 | 96.0 | i | 2.3 |
| CN=C1SC(CC(=O)Nc2ccccc2F)C(=O)N1/N=C/c1ccc(O)c(OC)c1 (configuration not stated) | 0.89 | . | 105.8 | . | . | i | -8.4 |
| CCCN1CCN(c2nc3c([nH]2)c(=N)ncn3CC(O)CO)CC1 (configuration not stated) | 0.97 | 27.6 | 90.4 | -1.3 | 104.4 | i | 8.6 |
| C#CCSc1nc(N)c2c(n1)OC(N)=C(C#N)C2c1cccnc1 (configuration not stated) | 0.93 | 27.3 | 51.2 | . | 43.5 | i | 0.0 |
| N/C(=N\OC(=O)/C=C/c1ccccc1Cl)c1cccnc1 | 0.98 | . | 100.7 | . | . | i | . |
| Cc1nn(-c2ccccc2)c(N)c1N=Nc1ccc(Cl)cc1 | 1.09 | . | 24.3 | -1.6 | . | i | -10.7 |
| CN(C(=O)C1CCOC1)c1nnc(-c2ccccn2)s1 (configuration not stated) | 0.88 | 27.8 | 100.6 | -1.2 | 139.3 | i | 1.9 |
| CCOC(=O)c1c(CN2CCCCC2)n(C)c2ccc(OC)c(S(=O)(=O)c3ccccc3)c12 | 0.85 | 26.9 | 87.4 | -0.5 | 85.9 | i | 5.9 |
| CCCn1c(=N)c(S(=O)(=O)c2ccccc2)cc2c(=O)n3ccccc3nc21 | 1 | . | 94.2 | . | . | i | . |
| COC(=O)CC1(C(=O)OC)Oc2ccc(Br)cc2C(=O)N1c1cccc(Cl)c1Cl (configuration not stated) | 0.86 | . | 97.1 | . | . | i | . |
| CCOCCCNS(=O)(=O)c1ccc(NC(=O)C2CC(=O)N(c3ccc(C)cc3)C2)cc1 (configuration not stated) | 0.79 | -21.4 | 98.0 | . | 107.7 | i | -2.3 |
| Clc1cccc(Cl)c1COc1ccccc1CNn1cnnc1 | 0.69 | -12.5 | 101.2 | . | 103.4 | i | -2.6 |
| CCOC(=O)c1cn(CC2CC2)c2cc(F)c(F)cc2c1=O | 0.83 | . | 111.7 | . | . | i | -2.4 |
| CCOC(=O)c1cnn(-c2ccc(F)cc2)c1N | 0.91 | . | 13.5 | . | . | i | 3.6 |
| COc1ccc(NC(=O)c2cccc(NC(=O)C(C)C)c2)c([N+](=O)[O-])c1 | 1.11 | . | 94.1 | 0.3 | . | i | 2.3 |
| O=C(Nc1cnn(C23CC4CC(CC(C4)C2)C3)c1)c1cc(-c2ccccc2)on1 | 0.81 | 31.2 | 101.7 | -2.6 | 71.1 | i | -8.9 |
| CCC1=NN2C(=N)/C(=C\c3cccn3-c3cccc(Cl)c3)C(=O)N=C2S1 | 0.99 | -25.0 | 90.6 | . | 100.0 | i | -1.8 |

Continued.
| mol | HSV replic up primary fold | INS promoter inh | RGS16-Gao | GALR2 agonist | INS promoter inh cell count | HSV replic up | PKD1 kinase inh |
| --- | --- | --- | --- | --- | --- | --- | --- |
| O=C(CN(c1ccccc1)S(=O)(=O)c1ccccc1)N/N=C/c1ccco1 | 0.97 | 8.1 | 97.9 | -0.8 | 88.6 | i | -8.5 |
| O=[N+]([O-])c1ccccc1C1Nc2cccc3cccc(c23)N1 | 0.98 | 35.5 | 76.4 | -1.6 | 57.9 | i | -21.4 |
| COCCNC(=O)C(c1ccc(F)cc1)N(CC1CCCO1)C(=O)CCC(=O)Nc1ccccn1 (configuration not stated) | 0.99 | -3.2 | 100.8 | -2.2 | 103.2 | i | -0.1 |
| O=S(=O)(c1ccc(Cl)cc1)N1CCC(O)(c2cccnc2)CC1 | 0.83 | -31.4 | 102.3 | -2.0 | 133.1 | i | -8.7 |
| COc1ccc(C2CC(=O)c3sc(N)nc3C2)cc1 (configuration not stated) | 1.05 | . | 98.4 | -2.6 | . | i | -17.6 |
| O=C(NCc1ccco1)C1Cc2ccccc2CN1C(=O)c1ccco1 (configuration not stated) | 1.07 | 35.7 | 96.9 | . | 54.2 | i | -3.4 |
| CCc1ccc2[nH]c(=O)c(CN(CCN(C)C)C(=S)NCc3ccco3)cc2c1 | 0.93 | -53.3 | 103.7 | . | 81.9 | i | -2.5 |
| CCCCCC(=O)Nc1ccc2oc(-c3cncc(Br)c3)nc2c1 | 1.01 | -28.6 | 84.2 | -1.5 | 117.4 | i | -0.8 |
| C=CCn1c(COc2ccccc2)nnc1SCC(=O)C(C)(C)C | 0.99 | -35.1 | 165.7 | 0.7 | 166.2 | i | -11.7 |
| O=[N+]([O-])c1nn(-c2ccc3c(c2)OCCO3)n(O)c1=NC1CCCCC1 | 0.99 | . | 100.8 | -2.4 | . | i | -2.7 |
| Cc1ccc(CN2CCN(Cc3nc4ccccc4nc3C)CC2CCO)cc1 (configuration not stated) | 0.87 | . | 97.7 | . | . | i | . |
| NC(N)=N/N=C/c1ccc(OS(=O)(=O)c2ccccc2)cc1 | 0.71 | -28.6 | 98.2 | . | 81.4 | i | -0.3 |
| COc1ccc(/C=N/NC(=O)c2cccc([N+](=O)[O-])c2)cc1OC(=O)c1ccc(C)cc1 | 0.78 | . | 76.6 | -2.5 | . | i | 10.4 |
| Clc1ccc(-c2nnc3sc(Cc4cccs4)nn23)cc1 | 0.94 | 8.7 | 77.6 | -0.8 | 118.7 | i | -2.4 |
